Compound activity: PubChem, several laboratories
UCH37 inh = inhibitors of human deubiquitinating enzyme UCH37 | purified proteasome/UCH37, Ub-AMC cleavage fluorescence | inhibition, % (concentration not given with the values) | 330,000 tested, 0.33% active;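 active = mean of two replicates above 20%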;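 also: 0% = compound-free wells with enzyme and 100% = wells lacking proteasome; stock transfer was 100 nL into about 20 µL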
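system = Proteasome-associated human UCH37 deubiquitinase | amount = 0.15 nM proteasome as dispensed | medium = pH 7.4 Tris-HCl (50 mM) with ovalbumin, ATP-MgCl2, DTT | incubation = 30 min preincubation with enzyme, 25 min cleavage at room temperature | detection = AMC fluorescence 355/460 nm | read-out basis = percent inhibition | controls = no-proteasome and no-compound wells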
E coli growth = inhibitors of Escherichia coli growth; AID 1053175; 330,000 tested, 0.21% active; OD600 absorbance (no concentration beside the values); OD600, 23 h; active compounds read low;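 active = OD600 absorbance below the run mean of sample wells minus 3.6 SD, in any replicate, cut at about 0.56 in these data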;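 also: stock transfer was 300 nL into about 60 µL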
HNF4A DNA FP = change in binding of human HNF4 alpha to DNA. P41235. HNF4a-FITC DNA binding, fluorescence polarization, 1 h. activity change, % at 10 µM. 360,000 tested, 0.3% active. AID 1224865; in the data active = activity change above about 30%, passing the limit was not always enough;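 also: controls were the assay level and a saturating level of protein; the project sought stronger binding though the title names inhibitors; some compounds called inactive have numbers as strong as hits; positive values seem to mean higher polarization but the record does not say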
Target sequence (P41235 whole entry, looked up): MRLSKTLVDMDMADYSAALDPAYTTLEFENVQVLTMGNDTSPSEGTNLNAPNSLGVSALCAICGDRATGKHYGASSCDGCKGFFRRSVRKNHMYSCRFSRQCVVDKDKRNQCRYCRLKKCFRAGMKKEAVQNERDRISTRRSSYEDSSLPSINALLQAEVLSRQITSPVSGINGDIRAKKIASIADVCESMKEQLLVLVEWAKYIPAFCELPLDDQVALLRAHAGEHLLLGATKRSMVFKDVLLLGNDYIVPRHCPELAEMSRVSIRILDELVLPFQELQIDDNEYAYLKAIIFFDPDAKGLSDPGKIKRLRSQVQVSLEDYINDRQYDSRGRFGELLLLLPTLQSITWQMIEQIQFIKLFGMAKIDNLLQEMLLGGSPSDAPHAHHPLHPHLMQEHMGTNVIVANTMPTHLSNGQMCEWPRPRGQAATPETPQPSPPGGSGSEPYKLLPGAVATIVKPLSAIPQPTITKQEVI
FGF22 binding = FGF22 (human) thermal shift binding; Q9HCT0; recombinant FGF22 thermal shift, SYPRO orange fluorescence; percent of sucrose octasulfate shift, DMSO zero; calls only at 9.99 µM; 340,000 tested, 1.5% active;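 active = melting point raised past a set limit in the mean and every replicate; three in four hits are not shown here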
Target sequence (Q9HCT0 whole entry, looked up): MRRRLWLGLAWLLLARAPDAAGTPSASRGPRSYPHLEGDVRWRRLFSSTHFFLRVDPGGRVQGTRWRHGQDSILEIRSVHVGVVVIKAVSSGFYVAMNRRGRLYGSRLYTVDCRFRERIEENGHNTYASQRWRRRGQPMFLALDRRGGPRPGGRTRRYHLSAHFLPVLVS
Beta2AR agonist = human beta-2 adrenergic receptor agonism by FAP; Am2.2-beta2AR cells, FAP receptor internalization, flow cytometry; reference of the scale not given here; P07550; 340,000 tested, 0.43% active; AID 504454; response, % (no concentration beside the values);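 active = response above a set limit, near 3 SD of response in nonfluorescent compounds, cut at about 42% in these data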;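 also: stock transfer was 100 nL into about 11 µL; a reference agonist was the positive control; negative values mostly stem from fluorescent compounds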
ALR inh = human ALR oxidase inhibition via reduced H2O2 | 290,000 tested, 3.8% active | purified ALR, DTT oxidation, H2O2 HRP-luminol luminescence | inhibition, % (concentration not given with the values) | AID 485317;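 active = mean and each replicate at 75% or more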;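 also: stock transfer was 7.5 nL into about 7.5 µL; 0% = neutral wells and 100% = wells with inactivated enzyme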
Target sequence (P55789 whole entry, looked up): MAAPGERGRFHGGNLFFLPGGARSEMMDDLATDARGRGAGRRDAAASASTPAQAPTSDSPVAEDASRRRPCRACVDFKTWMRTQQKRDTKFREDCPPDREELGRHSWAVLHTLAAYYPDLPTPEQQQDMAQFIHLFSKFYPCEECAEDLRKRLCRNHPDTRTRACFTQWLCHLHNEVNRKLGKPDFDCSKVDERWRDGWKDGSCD
rRNA inh HTS = selective bacterial rRNA inhibition in E. coli | AID 720706 | GFP signal change (wild-type ribosome), % (no concentration beside the values) | E. coli WT GFP vs humanized-ribosome RFP mutants, fluorescence, 24 h; active compounds read low; DMSO median 0, no signal -100 | 350,000 tested, 1.6% active;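 active = significant combined selectivity score with lowered wild-type GFP, culture density cut under 30%, mutant RFP and density less affected; inactive = any of these conditions unmet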; also: one replicate is shown; some compounds called inactive have numbers as strong as hits
rRNA inh HTS OD600 = also measured in rRNA inh HTS; calls as there; OD600 change, %; measured here: OD600 growth;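 optical density of the mix in the first replicate; 0 = DMSO median and -100 = no signal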
rRNA inh HTS RFP = recorded beside rRNA inh HTS, whose call it bears; RFP signal change, %; measured here: RFP humanized mutant strains;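 first replicate; 0 = DMSO median and -100 = no signal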
Active calls of the source: *; i = inactive; / = not tested or not shown. Only part of the results is shown, so the mix of outcomes need not match the whole.

UCH37 inh	E coli growth	HNF4A DNA FP	FGF22 binding	Beta2AR agonist	ALR inh	rRNA inh HTS	rRNA inh HTS OD600	rRNA inh HTS RFP	Molecule
-18.4	0.753	/	/	/	6.2	/	/	/	c1ccc2oc(-c3ccc(Nc4nc(N5CCCC5)nc(N5CCOCC5)n4)cc3)nc2c1
3.6	0.642	-2.5	i	6.4	98.3*	-2.2	-0.8	-1.6	CC(C)(C)N1C(=O)c2ccc(C(=O)Nc3ccc(O)cc3)cc2C1=O
2.6	0.677	4.0	i	-4.1	-2.6	12.1	6.2	2.8	C=CCn1c2ccccc2c2nnc(SCC(N)=O)nc21
1.2	0.669	-1.8	i	2.5	/	7.8	10.3	2.0	CCOC(=O)c1ccc(C(=S)N2CCCC2)cc1
1.0	0.705	-5.5	i	-11.9	-2.3	5.9	3.1	1.8	CCOc1ccc(N2C(=O)Nc3ccccc3C2(O)C(=O)NCc2ccc(OC)cc2)cc1 (stereo unspecified)
-1.0	0.659	2.5	i	-1.4	67.4	-1.2	7.5	-0.7	COc1ccc(N2CCN(C(=O)CC(C)S(=O)(=O)c3ccc4c(c3)NC(=O)CO4)CC2)cc1 (stereo unspecified)
-2.4	0.7	-2.8	i	8.8	11.9	-39.0	-65.0	-3.6	CN(CC(=O)Nc1cccc(F)c1)C(=O)c1ccc(-c2ccc(Cl)cc2)o1
-5.8	0.659	-0.7	i	3.9	-2.7	8.8	5.3	2.7	Cc1cccc(S(=O)(=O)Nc2ccc(-c3ccc4nncn4n3)cc2)c1
2.5	0.7	9.1	i	2.2	9.2	-0.8	1.7	0.7	Cc1ccc(-n2nc3c(c2NC(=O)c2cccs2)CS(=O)(=O)C3)c(C)c1
7.2	0.745	-3.9	i	-16.3	-1.8	7.8	9.4	1.2	CN(Cc1nccn1C)C(=O)C1CCC(=O)N(CCc2ccc(Cl)cc2)C1 (stereo unspecified)
5.0	0.73	-0.7	/	-2.9	-17.6	/	/	/	COc1ccc(N(CCC#N)S(=O)(=O)c2cccc3nsnc23)cc1
3.8	0.639	-2.0	i	10.7	-6.2	10.8	5.7	-0.3	NS(=O)(=O)c1ccc(NC(=O)Nc2ccc(S(N)(=O)=O)cc2)cc1
5.3	0.683	62.8*	/	-4.9	1.3	3.7	1.0	-3.0	c1ccc(CNc2c3c(nc4ncnn24)CCC3)cc1
/	/	6.3	i	16.9	-10.1	9.7	1.8	3.5	CCN(CC)S(=O)(=O)c1cccc(C(=O)N/N=C/c2cccc(O)c2O)c1
-0.2	0.729	5.1	i	-5.1	-1.2	-0.1	0.3	0.1	CCN1CCN(C(CNS(=O)(=O)c2ccc(Br)cc2)c2cccnc2)CC1 (stereo unspecified)
1.4	0.725	1.0	i	6.4	-1.8	2.0	-5.3	-1.2	CCOC(=O)C1CCN(C(=S)Nc2ccc(S(N)(=O)=O)cc2)CC1
2.8	0.67	4.2	i	3.4	-1.7	8.9	-5.3	3.0	O=C(NCCN1CCOCC1)C(Sc1ccccc1)c1ccccc1 (stereo unspecified)
1.6	0.662	1.4	i	5.3	-17.6	13.6	17.2	0.0	CCc1ccccc1NC(=O)c1cc(-c2ccc(OC)cc2)on1
4.5	0.692	0.8	i	-19.8	-8.8	2.5	-0.3	-1.1	CC(C)Oc1cccc(C(=O)C2CCCN(Cc3cnc(N4CCOCC4)s3)C2)c1 (stereo unspecified)
8.2	0.62	-1.4	i	-3.0	-66.5	1.4	-24.2	-1.7	O=C(Nc1nccs1)c1ccc(Cl)s1
/	/	4.1	i	/	/	1.2	-0.7	3.4	COc1ccc(C(O)c2nc(-c3cccc(NC(C)=O)c3)cs2)cc1 (stereo unspecified)
33.8*	/	-0.1	i	0.9	51.0	-4.5	0.7	-1.5	Cc1cc(/C=C2/C(=N)N3C(=NC2=O)SN=C3S(C)(=O)=O)c(C)n1-c1ccccc1
3.4	0.709	1.9	i	-2.5	11.3	-28.2	-22.7	0.3	COc1ccccc1N1CCN(S(=O)(=O)CCNC(=O)c2ccc(OC(C)C)cc2)CC1
3.4	0.65	-1.0	i	4.3	4.0	2.1	-10.1	-0.6	CNC(=O)CCN(Cc1ccco1)S(=O)(=O)c1ccc(OC)c(OC)c1
0.6	0.727	4.2	/	-2.5	-1.9	/	/	/	CCOC(=O)C1CCN(C(=O)Cc2c(C(=O)O)n(CC)c3ccccc23)CC1
-0.5	0.75	-2.3	/	-8.9	-0.9	/	/	/	CCc1nnc(NC(=O)c2nc3nc(C)cc(C)n3n2)s1
-6.3	/	0.7	i	3.4	/	4.1	4.3	-6.3	C#CCOCCOCCOCCNc1nc(N2CCN(C(=O)[C@H]([C@@H](C)CC)n3cc(CCCCN)nn3)CC2)nc(N2CCN(C(=O)[C@H](CCCCN)n3cc(CC(C)O)nn3)CC2)n1 (stereo partly specified)
2.9	0.67	1.2	i	5.1	-5.5	6.7	1.9	0.4	O=C1CN(C(=O)c2ccc(Cl)c([N+](=O)[O-])c2)c2ccccc2N1
3.2	0.67	-1.2	/	-10.4	98.2*	/	/	/	CCC(=O)Nc1nnc(C(C)(C)C)s1
/	/	-5.7	/	17.6	-6.9	/	/	/	O=C(Nc1ccc(O)c(-c2nc3ccccc3s2)c1)c1cc(=O)c2ccccc2o1
2.4	0.662	4.3	i	-6.6	-2.7	5.4	7.1	-0.6	CCC(C)N(C)C1CCN(C(=S)Nc2cccc(SC)c2)CC1 (stereo unspecified)
1.0	0.692	3.4	i	-21.4	/	8.4	14.1	1.5	O=C(CCn1cccc(C(F)(F)F)c1=O)Nc1cccc(C(F)(F)F)c1
0.5	0.705	-0.3	i	6.6	-4.2	16.6	6.4	-2.3	O=C(CNC(=O)COc1ccccc1)NCc1ccccc1F
/	/	0.3	i	/	/	8.3	3.2	2.9	Cn1nc(C(C)(C)C)cc1C(=O)N1CCCCC1c1cc(C(=O)NCc2cccnc2)no1 (stereo unspecified)
-162.8	0.742	6.8	/	14.1	/	/	/	/	CCCCNc1c(-c2ccc(OC)c(SC3CCCCC3)c2)nc2cc(C)ccn12
5.7	0.677	-3.3	i	-2.7	/	-2.5	0.7	-1.5	O=C(COC(=O)CC1CCCC1)Nc1ccc(Cl)cc1
1.6	0.715	-2.4	/	-2.5	-5.9	/	/	/	O=C1CC(c2ccncc2)c2cc3c(cc2N1)OCCO3 (stereo unspecified)
-2.0	0.693	1.3	/	1.4	-28.7	/	/	/	COc1ccc(NC(=O)CN2c3cccc4cccc(c34)S2(=O)=O)cc1
1.4	0.7	0.3	/	2.1	3.7	/	/	/	COC(=O)C1=C(C)N(C)C(=O)NC1c1cc(Cl)cc(Cl)c1OC (stereo unspecified)
4.0	0.638	0.2	i	16.0	/	-29.4	-37.2	-2.6	CCOc1ccc(NC(=O)Nc2nc(SCC)ns2)cc1

The list goes on; the last 2 above are carried over.
UCH37 inh	E coli growth	HNF4A DNA FP	FGF22 binding	Beta2AR agonist	ALR inh	rRNA inh HTS	rRNA inh HTS OD600	rRNA inh HTS RFP	Molecule
1.4	0.7	0.3	/	2.1	3.7	/	/	/	COC(=O)C1=C(C)N(C)C(=O)NC1c1cc(Cl)cc(Cl)c1OC (stereo unspecified)
4.0	0.638	0.2	i	16.0	/	-29.4	-37.2	-2.6	CCOc1ccc(NC(=O)Nc2nc(SCC)ns2)cc1
/	/	0.7	i	2.5	3.8	-38.2	-69.8	-8.1	FC(F)Oc1ccc(NC(=S)NC2CCCCCCC2)cc1
1.8	0.692	-4.3	i	2.1	-2.7	-0.4	-1.8	-3.0	COc1ccc(CCN(C)CCCN2CC(c3ccccc3)CC2=O)cc1OC (stereo unspecified)
4.2	0.699	-2.0	i	1.9	-2.6	1.1	9.1	-2.7	CC(C)(C)NC(=O)NC(=O)CN1C(=O)NC(C)(c2ccccc2)C1=O (stereo unspecified)
-3.8	0.707	2.1	i	1.0	-16.3	-1.8	1.3	-2.4	COc1ccc(OC)c2[nH]c(=O)c(CCNC(=S)NC(C)(C)C)cc12
2.2	0.705	1.6	i	-5.0	/	-1.3	-8.6	-0.4	Cc1cccc(NS(=O)(=O)c2ccc(C)c(C(=O)N3CCN(C(=O)c4ccco4)CC3)c2)c1
-1.3	0.706	0.5	i	9.4	1.5	10.4	18.1	2.7	O=C(Nc1ccc(F)cc1)Nc1cnccn1
-31.4	0.697	3.0	i	-3.4	-13.2	8.5	7.4	-3.9	COC(=O)c1sc(-c2ccccc2)cc1NC(=O)c1ccc(OC)cc1
3.5	0.726	0.3	i	17.9	/	13.0	8.2	0.0	CCCCSc1nc2c(cnn2-c2ccc(F)cc2)c(=O)[nH]1
4.5	0.672	2.7	i	5.4	-0.6	3.3	2.9	3.1	O=C(NC1CCN(S(=O)(=O)c2ccc(Cl)c(F)c2)CC1)c1cccnc1
-2.1	0.684	-2.5	i	4.5	-15.7	7.2	-2.8	-0.6	Brc1ccc(CN2CCSCC2)cc1
2.6	0.669	1.3	i	-14.6	-4.2	9.9	11.0	-1.0	CC(C)(C)c1ccc(C(CC(=O)O)NC(=O)Cc2ccccc2)cc1 (stereo unspecified)
-417.1	0.703	1.1	/	-17.9	99.9*	-24.8*	-15.7*	-5.2*	CC(C)(C)CC(C)(C)Nc1c(-c2ccc(O)cc2)nc2cnccn12
0.3	0.672	-0.6	i	-7.3	-13.3	7.2	6.0	-1.7	Cc1ccc(C)c(S(=O)(=O)NCC(=O)N2CCCC2)c1
-1.8	0.701	-2.2	/	-0.2	/	/	/	/	COC(=O)C1(C)NC(c2cccs2)C2C(=O)N(c3ccc(F)cc3)C(=O)C21 (stereo unspecified)
1.0	0.693	-1.8	/	-8.8	-6.2	/	/	/	COc1cccc(OC)c1C(=O)OCC(=O)Nc1ccc(OC(F)(F)F)cc1
9.7	0.759	2.1	/	-3.9	-5.5	/	/	/	CCOC(=O)C(C)N1N=C(/C=C/c2ccc(OC)cc2)CCC1=O (stereo unspecified)
2.4	0.659	7.0	i	-4.2	-34.7	8.0	5.3	0.2	CC1CCCN(CCC(=O)Nc2ccc(F)c(F)c2)C1 (stereo unspecified)
4.9	0.743	-4.4	/	2.9	/	/	/	/	COc1ccc(C)cc1NC(=O)C1CCCN1C(=O)OCc1ccccc1 (stereo unspecified)
